NPYLR7 ag – agonists of mosquito NPYLR7 receptor, primary screen, cell-based, Aedes aegypti, calcium fluorescence, mosquito biting behavior. Aedes aegypti neuropeptide Y-like receptor 7 (NPYLR7). HEK293T NPYLR7/Galpha15, GCaMP6s calcium fluorescence. activation, % at 10 µM. 270,000 compounds, 0.15% hits. AID 1259423, 2018; in the data active = activation above about 40%;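 also: 0% = vehicle and 100% = reference agonist at the receptor; some compounds past the cut are filed as inactive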
NPYLR7 ag max-min – further read-out of NPYLR7 ag, marked with its call; activation, %; measured here: Max-Min RFU normalised activation; some inactives read as strong as hits;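 span of the calcium signal over five minutes; 0% = vehicle and 100% = native peptide agonist; compound fluorescence can raise it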
Starred values were filed as active, the others as inactive; + = active, no number; & = joins results of further samples. This is a subset; count on the stated rates, not on these rows.

structure	NPYLR7 ag	NPYLR7 ag max-min
CCN(C(=O)OC)C(c1ccccc1)C1CCCCC1=O (centres undefined)	-3	-3
Cc1ccc(NC2CCCN(C(=O)c3snnc3C)C2)cc1C (centres undefined)	4	7
CCCn1c(SCC(=O)c2cc(C)n(-c3cc(C)on3)c2C)n[nH]c1=O	8	6
Cc1[nH]cnc1-c1c(-c2ccccc2)ncn1C	31	19
c1ccc(-c2cc(CSc3nnc(C4CC4)n3C3CC3)no2)cc1	0	8
CCCCN(Cc1cccn1Cc1ccc(Br)cc1)C(=O)CN(CCC)C(=O)C(C)Cl (centres undefined)	-5	-1
O=C(CN1CCOC1=O)N1CCOC(c2ccc(Cl)c(Cl)c2)C1 (centres undefined)	3	0
Cc1ccn2c(CNCc3ccc(F)cc3F)c(C(=O)N3CCCCCC3)nc2c1	17	10
Cc1ccc(C2(O)CCN(c3ncccc3F)CC2)nc1	1	2
O=C(Nc1ccc(N2CCCCC2)cc1)C1CC2CCC(C1)C21SCCS1 (centres undefined)	0	-3
O=C(Nc1ccccc1)Nc1ccc(-c2cn3cccnc3n2)cc1	7	9
CCN(CCc1nc2ccc(C)cc2[nH]1)C(=O)COC	3	0
CC1(Cc2cccc(F)c2)C(=O)Nc2cc(Cl)ccc21 (centres undefined)	1	-2
O=C(Nc1ccc(SCCCC(=O)N2CCN(c3ccc(F)cc3)CC2)nn1)C1CC1	-1	-1
CC1CCCCN1C(=O)COc1ccc(NC(=O)c2ccco2)cc1 (centres undefined)	7	2
CCCCc1ccc(C(=O)Nc2ccc(N3CCN(c4ccccc4OC)CC3)c(C(=O)NCC3CCCO3)c2)cc1 (centres undefined)	-3	3
Cc1cn2c3c(=O)n(Cc4cccc(Cl)c4)c(=O)n(C)c3nc2n1CCOCCO	6	2
O=C(Nc1nnc(SCc2ccc(F)cc2)s1)c1ccccc1Br	-5	-6
O=C(O)CCC(=O)Nc1nc(-c2ccc3c(c2)Cc2ccccc2-3)cs1	-5	-13
CC(C)Cn1ccnc1NC(=O)c1ccc(N2CCc3ccccc3C2)cc1	6	3
O=C1Cc2cc(S(=O)(=O)N3CCCC3c3ccc4c(c3)OCCO4)ccc2N1 (centres undefined)	0	7
CCN1C(=O)/C(=C2/Oc3ccccc3N2CC)SC1=Nc1nc2ccccc2s1	-16	-20
Cc1noc(C)c1COC(=O)C(=Cc1cccs1)c1cccs1	-6	-6
CCCCCCNC(=O)c1csc(CN(C(=O)Nc2ccccc2F)C(C)C)n1	7	12
Cc1oc2c3c(ccc2c(=O)c1-c1ccc2c(c1)OCCO2)OCCO3	0	-5
O=C(O)CN1C(=O)/C(=C\c2cc(Br)cc(Br)c2O)SC1=S	37	63
Cc1noc(C)c1S(=O)(=O)Nc1ccc(N2CCOCC2)cc1N1CCOCC1	-1	1
Cc1cccc(NC(=O)CSc2nnc(CCC(=O)O)c(=O)[nH]2)c1	9	4
Cc1cc(C(C)(O)CNC(=O)CCOCC(C)C)c(C)o1 (centres undefined)	3	3
Cc1ccc(C(C)(C)NC(=O)CCN2CCCCO2)cc1	-4	-5
CCOC(=O)C1CCCN(C(=O)c2coc(CN(Cc3ccc(F)cc3F)C(C)c3ccccc3)n2)C1 (centres undefined)	18	19
CCCc1cc(N2CCN(Cc3c(CO)cnc(C)c3O)CC2)nc(C)n1	-3	-7
CCCC1=NN2C(=N)/C(=C/c3ccccc3Br)C(=O)N=C2S1	-3	0
COc1cc(NC(=O)N2CCN(CCCOC(c3ccc(Cl)cc3)c3ccc(Cl)cc3)CC2)cc(OC)c1	2	-2
CC1(C)CC(=O)N(CCNc2ccc([N+](=O)[O-])cn2)C1=O	-20	-28
CC(Sc1nnnn1C)C(=O)Nc1ccnn1C(C)C (centres undefined)	8	3
C=CCn1c(COc2ccc(Cl)cc2)n[nH]c1=S	9	6
Cc1cc(=O)c2n(Cc3ccccc3Cl)nc[n+]2[nH]1	4	4
CC1CCN(CCNC(=O)c2cccc(NC(=O)c3ccc(F)cc3)c2)CC1	0	16
Cc1cnc(C)c(N2CCC3(CCCO3)CC2)n1	7	3
CN1CCn2nc(C(=O)NCC(c3cccnc3)N3CCOCC3)cc2C1 (centres undefined)	3	3
CC1(Cc2ccccc2OC(F)(F)F)C(=O)Nc2ccc(-c3cccnc3)cc21 (centres undefined)	4	3
CC(NC(=O)c1cc(NC(=O)c2cccc([N+](=O)[O-])c2)ccc1N1CCCC1)c1ccccc1 (centres undefined)	-4	3
Cc1noc(C)c1S(=O)(=O)NC1CCCCCCC1	1	-1
COCCCn1c(-c2ccc(C)cc2)nc2oc3ccccc3c(=O)c2c1=O	1	-3

Complete entries, quoted from the list.
Cc1cc(=O)c2n(Cc3ccccc3Cl)nc[n+]2[nH]1 reads NPYLR7 ag: 4; NPYLR7 ag max-min: 4
CC1(Cc2ccccc2OC(F)(F)F)C(=O)Nc2ccc(-c3cccnc3)cc21 (centres undefined) reads NPYLR7 ag: 4; NPYLR7 ag max-min: 3

(next part)
structure	NPYLR7 ag	NPYLR7 ag max-min
C=CCOC(=O)C1=C(C)Nc2nc(SCC(C)C)[nH]c(=O)c2C1c1ccc(C(=O)OC)cc1 (centres undefined)	5	5
CCOC(=O)c1nn(-c2ccc(F)cc2)c(=O)c2c(NC(=O)CCc3ccccc3)scc12	-8	-6
Cc1nc(CCNC(=O)CSCc2ccccc2Cl)cc(=O)[nH]1	-3	-3
O=C(NCc1ccc(F)c(F)c1)c1ccc(-c2cc(-c3cccc(C(F)(F)F)c3)n[nH]2)cc1	-2	6
CCn1c(=O)n(CC(=O)NCc2ccccc2F)c2ccccc21	-2	-4
NC(=O)Cc1ccc(C(=O)CSc2nnc(Cc3cccs3)n2C2CC2)s1	4	12
CN(C)CCNC(=O)c1cccc(-c2cc(-c3ccc(-c4ccccc4)cc3F)cnc2N)c1	-1	-6
CC1CCN(C(=O)c2cc(NC(=O)c3cc(C(F)(F)F)cc(C(F)(F)F)c3)ccc2N(C)C)CC1	-9	1
COc1ccc(-c2nc(CNC(=O)c3c(C)noc3-c3cccc(F)c3)c(C)o2)cc1	7	13
CS(=O)(=O)CCNc1ccc2cc(Br)c(F)cc2n1	-22	-22
CC1=C(C(N)=O)C(c2ccco2)C(C#N)C(SCC(=O)O)=N1 (centres undefined)	19	17
O=C(NC(c1ccccc1)c1ccccc1)c1ccc(=O)[nH]c1	0	-2
CCN(CC)C(=O)CSc1nc(-c2ccccn2)no1	14	11
CCn1c(=O)c(C(=O)O)nn(-c2cccc(C)c2)c1=O	2	8
NC(c1csc(Nc2cc(Oc3ccccc3)ncn2)n1)C1CCCCC1 (centres undefined)	-3	-8
O=c1nc2c3cc(Br)ccc3[nH]c(=O)n2nc1-c1ccc(F)cc1	-3	-5
N#CC(=Cc1cnn(-c2ccccc2)n1)c1nc2ccccc2s1	9	5
COc1ccc(CCNC(=O)C2CCCN(c3cnc4ccccc4n3)C2)cc1OC (centres undefined)	5	2
Cc1ccc(CC(C#N)Sc2nnc(C3CCCCC3)o2)cc1 (centres undefined)	-1	-7
COc1ccc2c(c1)CCc1c(-c3ccc(C(=O)NCCc4ccccn4)cc3)n[nH]c1-2	4	-4
Cc1cc(C)c(NC(=O)CN(C)C(=O)C2(S(=O)(=O)c3ccccc3)CCCC2)c(C)c1	0	-3
Cc1cc(C(=O)N2CCN(C)CC2C)c2c(C)noc2n1 (centres undefined)	19	16
O=C(NCCC(=O)N1CCC(C(=O)N2CCCCC2)CC1)Nc1cccc(Cl)c1Cl	16	21
COC(C(=O)N1CCc2cccc(F)c21)c1ccccc1 (centres undefined)	2	-1
Fc1ccc2c(NC3CCN(c4ncccn4)CC3)ccnc2c1	-1	-2
Cc1ccc(CNc2ccc(CNc3ncn[nH]3)cc2)cc1	-15	-21
CCOC(=O)N1CCN(C2CCCN(Cc3cn[nH]c3-c3ccc(Cl)cc3)C2)CC1 (centres undefined)	18	7
COc1ccc(C(N)CC(=O)N2CCC(O)(c3ccc(C)cn3)CC2)cc1OC (centres undefined)	-3	-3
COCCCN(CC(=O)N(Cc1cccn1Cc1ccc(F)cc1)C1CCCCC1)C(=O)C(C)Cl (centres undefined)	16	19
O=S(=O)(N1CCCCC1)N1CCC2(CC1)CC2c1nnc(-c2cccc(F)c2)o1 (centres undefined)	14	10
COc1ccc(-c2cc(C(=O)N3CCN(c4ccccc4OC)CC3)n3nc(-c4ccc(Cl)cc4)cc3n2)cc1	21&-7	17&3
COc1ccccc1NC(=O)NCC(C)N1CCCCC1 (centres undefined)	7	2
COc1ccc(CCN(Cc2ccc(C)s2)C(=O)CN(C(=O)Nc2c(Cl)cccc2Cl)C2CCCCC2)cc1OC	12	21
CC1CCC(NC(=O)CSc2nnc(C(C)C)o2)CC1 (centres undefined)	1	0
Cc1ccc(-n2nc(-c3ccccc3)cc2C(=O)NCc2ccc3c(c2)OCO3)cc1	-2	5
C(=NN1CCN(C2c3ccccc3-c3ccccc32)CC1)c1ccc2c(c1)OCCO2	7	3
CCc1cc(N(C)Cc2ccccc2)nc(SCc2ccc(C(=O)NC(C)C)cc2)n1	12	15
OC(CNC1CCCC1)COC12CC3CC(CC(C3)C1)C2 (centres undefined)	13	8
O=C(c1cccc(Br)c1)N1CCCC(OCc2ccc(F)cc2F)C1 (centres undefined)	10	13
O=C(Nn1ccc2c(nnc3ccnn32)c1=O)c1ccncc1	-2	-3
CCN(CC(=O)Nc1cc(C(C)(C)C)nn1-c1ccccc1Cl)C(=O)NC12CC3CC(CC(C3)C1)C2	0	1
COC(=O)c1ccccc1NC(=O)CN1C(=O)c2ccccc2C1=O	-2	-6
O=C(c1cccc(C(F)(F)F)c1)C1CCCN(Cc2c[nH]c(=O)[nH]c2=O)C1 (centres undefined)	6	3
CCCCc1nc(N2CCN(C(=O)c3ccc(F)cc3)CC2)c2c(-c3ccccc3)noc2n1	18	11
CN1CCC2(CCN(C(=O)CCc3ccc(O)cc3)CC2)C1	9	12

Looked up above:
Value for CCN(CC(=O)Nc1cc(C(C)(C)C)nn1-c1ccccc1Cl)C(=O)NC12CC3CC(CC(C3)C1)C2 in NPYLR7 ag: 0
Value for COc1ccccc1NC(=O)NCC(C)N1CCCCC1 (centres undefined) in NPYLR7 ag: 7
Value for CCCCc1nc(N2CCN(C(=O)c3ccc(F)cc3)CC2)c2c(-c3ccccc3)noc2n1 in NPYLR7 ag max-min: 11
Value for O=C(c1cccc(Br)c1)N1CCCC(OCc2ccc(F)cc2F)C1 (centres undefined) in NPYLR7 ag: 10
Value for COC(=O)c1ccccc1NC(=O)CN1C(=O)c2ccccc2C1=O in NPYLR7 ag max-min: -6

Retrieved by compound from above, two records:
structure	NPYLR7 ag	NPYLR7 ag max-min
OC(CNC1CCCC1)COC12CC3CC(CC(C3)C1)C2 (centres undefined)	13	8
CC1CCC(NC(=O)CSc2nnc(C(C)C)o2)CC1 (centres undefined)	1	0

(continued)
structure	NPYLR7 ag	NPYLR7 ag max-min
COc1cc(CNc2ccc(N(C)C)cc2)ccc1OCC(=O)NC(C)(C)C	-2	-2
CCc1nc(SCC(=O)NCc2ccc3c(c2)OCO3)n[nH]1	11	-6
CCOc1ccc(-c2ccc(C)c(NC(=O)c3cccc(OC)c3OC)c2)nn1	0	16
Cn1ccnc1SCCNC(=O)C1CCC(=O)N(C2CCCCCC2)C1 (centres undefined)	3	2
CCCCN(C)C1=CC2=CC(=C(C#N)C#N)CCC2CC1 (centres undefined)	+	922*
CC(C)NC(=O)c1ccc(NC(=O)N2CCNC(=O)C2)cc1	24	15
CCNC(=S)N1CCC(C(NC(=O)c2ccc(OC)cc2)C(=O)NCCOC)CC1 (centres undefined)	9	10
COc1ccc(Cc2ncc3c(n2)CN(C(=O)c2cccc(O)c2)C3)cc1	2	-4
CCN1CCNC(=O)C1CC(=O)N1CCC(c2nn(C)c(=O)n2CC)CC1 (centres undefined)	4	3
O=C(Nc1cccc2ccccc12)N(Cc1ccco1)CC(F)(F)F	2	0
COc1ccc(Cl)cc1-c1nc(-c2nonc2N)no1	-1	-5
COC(=O)c1ccccc1C(=O)N1CCCC(CCC(=O)NCc2ccc(F)c(F)c2)C1 (centres undefined)	8	-1
O=C(NCCNC(=O)C1CCN(C(=O)c2ccc(Cl)cc2)CC1)c1ccccc1	21	18
CCn1c(CCN)nnc1Sc1cccc(F)c1C#N	9	5
CCn1nc(CC(C)C)cc1C(=O)N1CCC2(CC1)CC(C(=O)O)N(C)C2 (centres undefined)	3	8
Cc1ccccc1CN(Cc1ccc2c(c1)OCO2)CC(O)COc1ccccc1C (centres undefined)	16	26
O=C(CCN(c1nc(C2CC2)nc2cc(Cl)ccc12)C1CCCCC1)N1CCN(c2ccccc2F)CC1	4	5
Cc1occc1C(=O)NCc1cccnc1N1CCCCCCC1	11	4
CCOC(=O)NC(O)C(F)(F)C(F)(F)C(F)(F)C(F)(F)C(F)(F)C(F)F (centres undefined)	4	3
CC1=C(C(=O)Nc2ccc(C)cc2)C(c2ccc(Br)cc2)NC(=O)N1C (centres undefined)	8	7
Cc1cccc(-c2nnc(NC(=O)C(C)NC(=O)C(C)(C)C)s2)c1 (centres undefined)	-2	2
O=C1CN(CC(=O)N2CCCC(Nc3cccc(F)c3)C2)C(=O)N1 (centres undefined)	4	3
Cn1nc(Br)c2c(Oc3cccnc3)ncnc21	2	1
NC(=O)CSc1ccccc1C(=O)Nc1ccc(-c2cc3ccccc3o2)cc1	2	0
COc1cccc(CN2C(=O)C3(SCCN3C(=O)c3ccccc3F)c3cc(Cl)ccc32)c1 (centres undefined)	3	2

From PubChem
